Rango-impB inh – prevents formation of the Rango-importin beta complex; 0.031% of 340,000 active; AID 540263; Potency, µM (top dose mostly 92.2 µM), without a hit: at the top dose inhibition of complex formation; Rango CFP/YFP FRET sensor + importin beta, 45 min; Q14974; active = rising FRET ratio curve, often small or poorly fitted; inconclusive = mostly compound fluorescence or quenching in the first reads; inactive = flat curves in all reads;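 note: potency is the fitted concentration of half-maximal effect; 0% = DMSO wells and 100% = buffer wells lacking importin beta; nearly all actives have a fitted effect of over 15% in size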
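FRET biosensor (snurportin 1 IBB flanked by EYFP and cerulean), 50 nM, with compound 5 min, then 0.125 microM importin beta in PBS, 1 mM DTT, 0.02% Tween-20, 0.1% BSA. CFP/YFP ratio read after 45 min at room temperature; pre-read flags interference.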
Rango dissoc inh – inhibitors of RanGTP-induced Rango-importin beta complex dissociation; O95149+P62826; Biochemical FRET Rango-importin beta, RanGTP-induced dissociation; Potency, µM (highest dose often 46.1 µM), for inactives: top-dose activity change, negative = inhibition; 0.071% of 340,000 active; AID 540253; active means falling FRET ratio curve, often poorly fitted, with flat reads before Ran was added; inconclusive means other falling curves, or compound fluorescence or quenching; inactive means flat or rising ratio curve;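 note: potency is the fitted concentration of half-maximal effect; % of control where 0% means no effect; nearly all actives have a fitted effect of over 45% in size; -100% = wells without RanGTP and RCC1; the record marks most hits as doubtful in a second field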
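Compounds preincubate 5 min with complex of recombinant Rango and importin beta in PBS with 1 mM DTT. Ran (0.6 uM) loaded with 2 mM GTP plus 0.2 uM RCC1 starts dissociation; FRET is recorded 45 min later.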
miR-21 FLuc – raises the signal of a miR-21 reporter. 340,000 tested, under 10 active. HeLa miR-21 FLuc reporter, luciferase, 48 h. Potency, µM (top dose mostly 38.3 µM), for the others: at the top dose reporter change, positive = more light; active = well fitted rising curve with a large enough effect; inconclusive = small, poorly fitted or top-dose-only effect; inactive = no such curve, though single readings can be large or run the other way;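 note: % of control where 0% means no effect; miR-21 action dims this reporter so a rising signal means less miR-21 action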
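Luminescence from a firefly luciferase reporter carrying a miR-21 binding site downstream, stably expressed under a CMV promoter in HeLa cells that make miR-21 endogenously, reports miRNA modulation after 48 h compound exposure up to approximately 40uM final.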
GLA inh pH 4.5 – inhibitors of human alpha-galactosidase A at pH 4.5; activity change, negative = inhibition, % at 105 µM; AID 1467; purified enzyme, 4-MU-alpha-Gal fluorescence, pH 4.5; P06280; 230,000 tested, under 10 active; inconclusive = small, poorly fitted or top-dose-only inhibition, or a rising curve; inactive = flat fitted curve, though single readings scatter; no compound was filed as active;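 note: 0% = full activity with enzyme and -100% = basal without enzyme; dose as in the result columns while the protocol names 77 µM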
Target sequence (P06280 whole entry, looked up): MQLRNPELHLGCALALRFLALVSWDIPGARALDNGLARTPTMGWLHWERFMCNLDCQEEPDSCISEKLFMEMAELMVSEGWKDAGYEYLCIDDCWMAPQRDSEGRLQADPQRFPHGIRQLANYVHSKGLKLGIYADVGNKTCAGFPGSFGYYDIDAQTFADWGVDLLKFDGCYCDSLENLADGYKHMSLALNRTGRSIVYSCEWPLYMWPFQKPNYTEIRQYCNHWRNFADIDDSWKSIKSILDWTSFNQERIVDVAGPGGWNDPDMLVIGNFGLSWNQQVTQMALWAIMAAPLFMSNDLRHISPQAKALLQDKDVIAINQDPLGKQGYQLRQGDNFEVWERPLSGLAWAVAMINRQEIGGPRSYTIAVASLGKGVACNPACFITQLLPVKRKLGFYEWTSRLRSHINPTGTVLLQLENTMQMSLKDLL
* = called active by the depositor; ? = inconclusive; . = not tested or not shown; & = joins results of further samples. These rows are one share of the data. The share of hits here may be higher or lower than overall.

SMILES	Rango-impB inh	Rango dissoc inh	miR-21 FLuc	GLA inh pH 4.5
Cc1c(C(=O)NCC2COc3ccccc3O2)oc2ccc(S(=O)(=O)N3CC(C)CC(C)C3)cc12 (configuration not stated)	-3.8%	-2%	0%	3
CN=C(c1ccccc1)c1c(C)cccc1C	0.1%	?	-13%	12
CCOC(=O)N1CCN(C(=O)C2CCN(c3nnc(-n4cccc4)s3)CC2)CC1	-1.8%	1%	-3%	.
N#CCC(=O)c1sccc1-n1cccc1	?	?	-1%	4
O=C(CSc1nnc(Nc2ccccc2)s1)Nc1cccc(S(=O)(=O)N2CCCCC2)c1	1.7%	1%	13%	5
CCn1c(Cc2ccc(OC)cc2)nnc1SCC(=O)N1CCN(c2ccccc2)CC1	0.0%	13%	8%	0
C#CCOCCOCCOCCNc1nc(N2CCOCC2)nc(N2CCN(C(=O)[C@H](Cc3cc4ccccc4[nH]3)n3cc([C@@H](N)CC(C)C)nn3)CC2)n1	0.2%	-14%	-7%	-7
COc1ccc(C(=O)c2ccccc2O)c(O)c1	-1.9%	8%	.	-7&-4
CSc1ccc(N=Nc2c(C)[nH]n(C)c2=O)cc1	-0.1%	-7%	-53%	-9
CCOc1ccc(N(C(=O)c2snc(C(N)=O)c2N)C(C(=O)NC2CCCC2)C(C)C)cc1 (configuration not stated)	-0.2%	-12%	-1%	.
Cc1nc2ccc(S(=O)(=O)NCC(=O)N3CCc4ccccc43)cc2s1	1.2%	7%	-15%	6
COC(=O)c1sc(NC(=O)COc2ccccc2C)nc1C	-5.9%	-17%	-32%	8
N#Cc1c2n(c(=O)[nH]c1=O)CCCCC2	2.1%	-4%	-15%	-4
Cc1cc(N2CCN(C(=O)Nc3ccccc3C#N)CC2)c2ccccc2n1	1.2%	-12%	-5%	.
O=S(=O)(c1cccc(C(F)(F)F)c1)N1CCN(c2nnnn2-c2ccccc2)CC1	6.5%	3%	0%	1
Cc1ccn2cc(-c3cccc(S(=O)(=O)N4CC(C)OC(C)C4)c3)nc2c1 (configuration not stated)	5.4%	6%	8%	.
O=C(O)CCCCCCCCc1cn(Cc2ccc(C(=O)c3ccccc3)cc2)nn1	0.2%	-16%	6%	.
O=[N+]([O-])c1cccnc1N1CCC(c2cc(-c3ccc(Cl)cc3Cl)n[nH]2)CC1	-5.8%	12%	9%	-4
O=c1c(-c2ccccc2)c(O)nc(SCCN2CCOCC2)n1-c1ccccc1	0.2%	0%	-7%	-3
CCOC(=O)c1sc(NC(=O)CCc2ccccc2)nc1C	2.4%	13%	1%	.
O=C(Nc1cccc(Cl)c1Cl)C1CC(=O)N(c2ccc(Br)cc2)C1 (configuration not stated)	-1.0%	-1%	10%	6
Cc1nnc(NC(=O)CCN2C(=O)/C(=C\c3ccccc3)SC2=S)s1	?	-2%	0%	-5
O=C(CNS(=O)(=O)c1ccccc1)N1CCN(c2ccccc2)CC1	3.3%	8%	-13%	-8
NNC(=O)c1nc[nH]c1C(=O)Nc1ccccc1[N+](=O)[O-]	-5.0%	9%	1%	-3
O=c1[nH]c2ccccc2[nH]c1=O	-0.5%	-23%	-4%	-3

Quoted at random: 6 records from the list
SMILES	Rango-impB inh	Rango dissoc inh	miR-21 FLuc	GLA inh pH 4.5
Cc1nnc(NC(=O)CCN2C(=O)/C(=C\c3ccccc3)SC2=S)s1	?	-2%	0%	-5
Cc1ccn2cc(-c3cccc(S(=O)(=O)N4CC(C)OC(C)C4)c3)nc2c1 (configuration not stated)	5.4%	6%	8%	.
CCn1c(Cc2ccc(OC)cc2)nnc1SCC(=O)N1CCN(c2ccccc2)CC1	0.0%	13%	8%	0
CCOC(=O)c1sc(NC(=O)CCc2ccccc2)nc1C	2.4%	13%	1%	.
Cc1cc(N2CCN(C(=O)Nc3ccccc3C#N)CC2)c2ccccc2n1	1.2%	-12%	-5%	.
C#CCOCCOCCOCCNc1nc(N2CCOCC2)nc(N2CCN(C(=O)[C@H](Cc3cc4ccccc4[nH]3)n3cc([C@@H](N)CC(C)C)nn3)CC2)n1	0.2%	-14%	-7%	-7

Next results
SMILES	Rango-impB inh	Rango dissoc inh	miR-21 FLuc	GLA inh pH 4.5
COc1cccc2cc(C(=O)CC3(O)C(=O)N(Cc4ccccc4)c4ccccc43)c(=O)oc12 (configuration not stated)	-0.8%	-10%	-3%	-2
C#CCCOC(=O)N1C2=NC(C(=O)OC)=C(C(=O)OC)[C@@H]3N(CC=C)c4ccccc4[C@]23C[C@H]1C(=O)OC	3.4%	9%	8%	9&3
CCOc1ccc(S(=O)(=O)Nc2cccc(C(=O)NCC(c3ccccc3)N(C)C)c2)cc1 (configuration not stated)	-0.4%	14%	.	.
O=C(NCC(=O)N1CCN(Cc2c(F)cccc2Cl)CC1)c1cccc(Cl)c1	?	1%	.	.
COc1ccc(CCC(C)NC(=O)CCc2ccccc2)c(OC)c1 (configuration not stated)	2.6%	-15%	-3%	.
Cc1cc(C)c(-n2c(SCC(=O)N3CCOCC3)n[nH]c2=O)c(C)c1	-0.4%	15%	1%	.
Cn1c(=NC(=O)c2ccco2)sc2ccccc21	-0.6%	5%	-22%	5
CCCNC(=O)C1Cc2cc(S(=O)(=O)N3CCCC3)ccc2N1C(C)=O (configuration not stated)	-1.4%	23%	3%	.
O=C(/C=C/Sc1ccccc1)c1ccccc1	3.4%	1%	?	.
COc1cccc(-c2onc3ccc(C(=O)/C=C/N(C)C)cc23)c1	-2.3%	-21%	9%	.
O=S(=O)(c1ccc2nc(COc3ccc(Cl)cc3Cl)[nH]c2c1)N1CCOCC1	1.1%	-6%	0%	-16
CCOC(=O)C1=C(c2ccccc2)NC(N)=NC1c1ccc(OCc2ccc(C(=O)OC)cc2)cc1 (configuration not stated)	0.3%	0%	?	-9
COc1ccc(CCNC(=O)C(=O)NCC2OCCN2S(=O)(=O)c2ccc(OC)c(C)c2)cc1 (configuration not stated)	5.3%	40%	17%	.
CCOC(=O)c1nn(-c2cccc(OC)c2)c(-c2ccccc2)c1C(=O)c1ccccc1	-2.8%	-15%	9%	-10
COc1ccc(-c2cn(CCC(=O)O)c(-c3ccc(Cl)nc3)n2)cc1	4.6%	1%	.	.
CC(C)=C1C2C=CC1C(C(=O)Nc1cccc(C)c1)C2C(=O)O (configuration not stated)	-4.2%	11%	-11%	1
O=C(C(=O)N1CCN(c2cccc(Cl)c2)CC1)c1c[nH]c2ccccc12	0.5%	18%	-9%	-1
COc1ccccc1C(=O)NC(=O)COC(=O)c1cc[n+]([O-])cc1	0.0%	2%	.	.
Cc1ccccc1-c1nc(CN2CCC(C(=O)O)CC2)c(C)o1	-2.8%	6%	-2%	-8
COc1cc(-c2nnc(COC(=O)c3nn(CC(C)C)c(=O)c4ccccc34)o2)cc(OC)c1OC	-1.1%	10%	.	.
CC1(C2CC2)NC(=O)N(CC(=O)Nc2ccc(C(F)(F)F)cc2)C1=O (configuration not stated)	5.8%	23%	.	.
CC(C)C(c1nnnn1Cc1ccccc1)N1CCN(Cc2ccco2)CC1 (configuration not stated)	-1.6%	-3%	-2%	-12
CC(C)(C)[C@H]1C=C(C(=O)NC2CC2)O[C@@H](OCCCCO)C1	-1.8%	-1%	0%	0
CNC(=O)c1ccccc1-c1cn(C)c2ccccc2c1=O	0.2%	-3%	-1%	5
CCOc1ccccc1Nc1nc(-c2sc(NC(=O)c3ccco3)nc2C)cs1	?	-18%	24%	-3

Entries of single compounds as entered above. Order of values: Rango-impB inh | Rango dissoc inh | miR-21 FLuc | GLA inh pH 4.5
`Cc1ccccc1-c1nc(CN2CCC(C(=O)O)CC2)c(C)o1` as listed: -2.8% | 6% | -2% | -8
`Cn1c(=NC(=O)c2ccco2)sc2ccccc21` as listed: -0.6% | 5% | -22% | 5
`COc1cccc2cc(C(=O)CC3(O)C(=O)N(Cc4ccccc4)c4ccccc43)c(=O)oc12` (configuration not stated) as listed: -0.8% | -10% | -3% | -2
`O=C(CNS(=O)(=O)c1ccccc1)N1CCN(c2ccccc2)CC1` as listed: 3.3% | 8% | -13% | -8

Remaining list, next part
SMILES	Rango-impB inh	Rango dissoc inh	miR-21 FLuc	GLA inh pH 4.5
CCN(C(=O)CSc1ncnc2sc(C)c(C)c12)C1CCS(=O)(=O)C1 (configuration not stated)	-4.1%	18%	-2%	9
Cc1ccc(C(=O)N/C(=C\c2ccco2)C(=O)NC2CCS(=O)(=O)C2)cc1 (configuration not stated)	-3.4%	-17%	0%	-5
CC(C)(C)N/C=C(\C#N)S(=O)(=O)c1ccc(Br)cc1	-0.5%	-5%	-10%	-2
Cc1cccc(C(=O)Nc2nc(C)c(C(=O)Nc3ccc4c(c3)CCC4)s2)c1	-1.2%	-2%	7%	-20
CC(OC(=O)c1ccc(Cl)c([N+](=O)[O-])c1)C(=O)N1CCN(Cc2ccccc2)CC1 (configuration not stated)	0.0%	6%	.	.
Cc1cccc2sc(N(CCCN(C)C)C(=O)c3cc4ccccc4oc3=O)nc12	-2.6%	3%	-16%	14
COc1ccc(/C=C2\CCc3ccccc3C2=O)cc1O	-1.0%	-14%	?	.
COc1ccccc1NC(=O)C(C)OC(=O)CN1C(=O)C2CC=CCC2C1=O (configuration not stated)	-1.2%	10%	.	.
O=C(COc1ccc(F)cc1)NCC1(N2CCCCC2)CCCCC1	-2.1%	18%	.	.
Cc1ccc(Cl)cc1N(CC(=O)NC(C)c1ccccc1)S(C)(=O)=O (configuration not stated)	6.0%	-17%	6%	.
O=C(NCC1CCCN1S(=O)(=O)c1cccs1)c1ccc(F)c(F)c1 (configuration not stated)	?	0%	.	.
C#CCOCCOCCOCCNc1nc(N2CCN(C(=O)CCCCCCCCCCNC(=O)[C@@H](CCSC)n3cc(CCO)nn3)CC2)nc(N2CCN(C(=O)CCCCCCCCCCNC(=O)[C@@H]([C@H](C)O)n3cc(C)nn3)CC2)n1	-0.8%	0%	.	.
COCCNC(=O)c1cn(C)c2ccccc2c1=O	12%	-9%	-4%	0
O=C(NCC1CCCO1)c1onc(CSc2cccc(Cl)c2)c1C(=O)O (configuration not stated)	0.3%	7%	-4%	7
O=C(O)c1ccc(Nc2ccc(Cl)c(Cl)c2)c([N+](=O)[O-])c1	4.8%	18%	-1%	.
O=C1C2CCCN2C(=O)N1CCN1CCN(c2ccccc2)CC1 (configuration not stated)	-2.1%	14%	-17%	4
CCN(C(=O)Nc1ccccc1)c1ccccc1	-2.1%	12%	-10%	-1
CC(C)(C)c1ccc(C(=O)N2CCCN(C(=O)c3ccc(C(C)(C)C)cc3)CC2)cc1	3.7%	-18%	0%	-11
COc1ccc2c(c1OC)C(=O)OC2Nc1ccccn1 (configuration not stated)	0.3%	-8%	-3%	3
Cc1cc(NC(=O)CCCOc2ccc(Cl)cc2Cl)no1	0.1%	-16%	-2%	0
O=C(/C=C/c1ccccc1)Nc1ccc2c(c1)C(=O)NC2=O	-7.0%	-1%	-5%	7
CN(C)C(N)=NCCC[C@H](N)C(=O)O	0.6%	-3%	.	1
O=C(OC(C(=O)NC1CCCC1)c1ccccc1F)c1ccco1 (configuration not stated)	0.5%	-8%	6%	6
CC(=O)Nc1ccc(S(=O)(=O)NN=CCCc2ccccc2)cc1	-3.5%	2%	.	.
COc1ccc(CN2CCCC(C(=O)N3CCCCC3)C2)cc1OC (configuration not stated)	0.0%	-15%	0%	.
Cc1[nH]c2ccccc2c1-c1csc(NC(=O)CSCC(=O)O)n1	1.4%	-6%	1%	4
COC(=O)c1sccc1NC(=O)c1ccc(Br)s1	-1.4%	-1%	-1%	5
O=C(NC(=S)NCc1ccccc1)c1ccccc1[N+](=O)[O-]	0.0%	40%	-1%	3
CC1Cc2ccccc2N1C(=O)CCS(=O)(=O)c1ccc2c(c1)NC(=O)CS2 (configuration not stated)	4.7%	-13%	10%	.

Assay outcomes deposited in PubChem BioAssay by National Center for Advancing Translational Sciences (NCATS).
